# AF4-AF9 inh: blocks AF4 peptide binding to human AF9 | AlphaScreen, biotin-AF4 peptide binding to FLAG-AF9 | inhibition, % at 10 µM | hit rate 0.47% among 350,000 | AID 651704;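 active = every replicate reaching a set inhibition limit, whatever the replicate mean, cut at about 25% in these data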;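 note: 0% = plate neutral control median and 100% = total signal loss; the record names both 10 and 1 µM as test concentration; the first replicate is given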
# Target sequence (P42568 whole entry, looked up): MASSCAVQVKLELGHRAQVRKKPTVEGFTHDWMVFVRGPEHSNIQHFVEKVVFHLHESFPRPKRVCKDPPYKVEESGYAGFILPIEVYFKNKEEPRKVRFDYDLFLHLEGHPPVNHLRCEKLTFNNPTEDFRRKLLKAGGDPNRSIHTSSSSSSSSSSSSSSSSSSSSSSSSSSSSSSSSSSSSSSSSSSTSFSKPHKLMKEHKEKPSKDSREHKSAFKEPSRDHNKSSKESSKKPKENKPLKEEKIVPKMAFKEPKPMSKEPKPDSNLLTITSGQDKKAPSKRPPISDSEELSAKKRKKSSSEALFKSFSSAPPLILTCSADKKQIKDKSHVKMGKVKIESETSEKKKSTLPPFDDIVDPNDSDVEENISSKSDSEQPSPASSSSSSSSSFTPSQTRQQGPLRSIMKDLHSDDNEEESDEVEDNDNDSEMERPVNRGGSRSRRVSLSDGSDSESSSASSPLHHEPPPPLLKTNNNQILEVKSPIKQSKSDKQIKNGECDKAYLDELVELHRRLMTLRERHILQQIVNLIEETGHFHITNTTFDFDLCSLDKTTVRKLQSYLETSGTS
# Numbers without * were called inactive; & = joins results of further samples. Not all compounds are listed, so the mix of outcomes need not match the whole.
SMILES,AF4-AF9 inh
O=C(Nc1ccc2c(c1)OCO2)N[C@H]1CC[C@H](CC(=O)N2CCN(c3ccccc3)CC2)O[C@H]1CO,-0.5
CCN1CCN(C(C(=O)NC2CCCCC2)C2CC2)CC1 (stereo not given),-1.4
C[C@@H]1CN([C@@H](C)CO)C(=O)c2cc(NC(=O)CCCN(C)C)ccc2O[C@@H](C)CCCCO[C@H]1CN(C)C(=O)Nc1ccc2c(c1)OCO2,1.3
C[C@@H]1CN([C@H](C)CO)C(=O)c2cc(-c3cncnc3)cnc2O[C@H]1CN(C)Cc1ccncc1,-2.2
CC1(C(=O)NCCc2ccccc2)Cc2c(-c3cccc(C(F)(F)F)c3)ccnc2O1 (stereo not given),-0.5
C[C@H]1CN([C@@H](C)CO)C(=O)c2cc(NS(=O)(=O)c3ccc(Cl)cc3)ccc2O[C@H]1CN(C)S(=O)(=O)c1cn(C)cn1,-2.8
CC(=O)N(CC1CCC1)C[C@@H]1N[C@@H](CO)[C@H]1c1ccc(C2=CCCC2)cc1,8.5
COc1ccc(S(=O)(=O)Nc2ccc3c(c2)C(=O)N([C@@H](C)CO)C[C@H](C)[C@H](CN(C)S(=O)(=O)c2ccc(F)cc2)OCCCC[C@H](C)O3)cc1,0.8
COc1ccc(NC(=O)Nc2ccc3c(c2)C(=O)N([C@H](C)CO)C[C@@H](C)[C@H](CN(C)Cc2ccccc2)OCCCC[C@H](C)O3)cc1,7.6
C[C@@H]1CN([C@H](C)CO)C(=O)c2cc(NC(=O)c3ccncc3)ccc2O[C@@H]1CN(C)Cc1ccc(Cl)c(Cl)c1,-3.3
CC(C)C[C@H]1COc2c(Cl)cccc2S(=O)(=O)N1Cc1cccc(Cl)c1,-4.7
Cc1ccc([C@@H]2CC=C(C(=O)O)[C@H](c3ccccc3F)N2S(=O)(=O)c2ccccc2C)cc1,-3.2
Cc1noc(C)c1S(=O)(=O)N(C)C[C@H]1Oc2ccc(NS(=O)(=O)c3cccs3)cc2C(=O)N([C@@H](C)CO)C[C@H]1C,3.7
CN(C)Cc1csc(NC(=O)Nc2cccc(C(F)(F)F)c2)n1,-0.4
COc1cccc(NC(=O)N2[C@@H]3CNC[C@H]2C3c2ccc(-c3cccnc3)cc2)c1 (stereo not given in full),1.3&1.8
CC(C)CC#Cc1cnc2c(c1)C(=O)N([C@@H](C)CO)C[C@@H](C)[C@@H](CN(C)C(=O)CN1CCOCC1)O2,-4.9
CC(C)NC(=O)C1(C)Cc2c(-c3ccc(C(N)=O)cc3)ccnc2O1 (stereo not given),0.0
COc1ccc(CN(C)C[C@@H]2Oc3ccc(NC(=O)NC(C)C)cc3CC(=O)N([C@@H](C)CO)C[C@@H]2C)cc1,-3.3
CN1C(=O)c2cc(NC(=O)c3ccccc3)ccc2OC[C@H]2O[C@H](CC(=O)NC3CCCC3)CC[C@@H]21,-2.0
Cc1noc(C)c1NC(=O)Nc1cccc2c1O[C@@H](CN(C)C(=O)NC(C)C)[C@H](C)CN([C@@H](C)CO)C2=O,-2.1
CCCN1[C@@H]2c3ccc(-c4cccc(F)c4)c(=O)n3C[C@@H]2[C@@H](CO)[C@@H]1C(=O)N[C@@H](C)c1ccccc1,5.3
CN1C(=O)c2cc(NC(=O)Cc3cccs3)ccc2OC[C@H]2O[C@@H](CC(=O)N[C@H]3CCN(Cc4ccccc4)C3)CC[C@@H]21,-7.4
Cc1c(C)n(CC(O)CSc2ccccc2)c2ccccc12 (stereo not given),-0.1
CC(=O)NC[C@@H]1[C@H](c2ccc(-c3ccccc3F)cc2)[C@H](CO)N1C(=O)C1CC1,-0.9
C[C@H]1CN([C@@H](C)CO)C(=O)c2cccc(NS(=O)(=O)c3ccc(Cl)cc3)c2O[C@@H]1CN(C)S(=O)(=O)c1cccs1,-2.6
C[C@H]1CN([C@@H](C)CO)C(=O)Cc2cc(NC(=O)Cc3ccccc3)ccc2O[C@@H]1CN(C)S(=O)(=O)c1cccs1,-5.5
C[C@@H]1CCCCO[C@@H](CN(C)S(=O)(=O)c2ccccc2)[C@@H](C)CN([C@H](C)CO)C(=O)c2cc(NC(=O)CCCCCC(=O)Nc3ccccc3N)ccc2O1,0.4
COc1cccc(NC(=O)N[C@@H]2C=C[C@@H](CC(=O)Nc3ccccc3)O[C@H]2CO)c1,1.5
CCCC(=O)Nc1ccc2c(c1)OC[C@@H](C)N(Cc1ccncc1)C[C@H](C)[C@@H](OC)CN(C)C2=O,-7.8
COc1ccc2c3c([nH]c2c1)[C@@H](CO)N(C(=O)C1CC1)CC31CCN(C(=O)c2ccncc2)CC1,-5.3
CCCNC(=O)N1C[C@H](C)[C@H](OC)CN(C)C(=O)c2ccc(NC(=O)CCC)cc2OC[C@@H]1C,-2.0
Cc1ccc(S(=O)(=O)Nc2ccc3c(c2)C(=O)N([C@@H](C)CO)C[C@@H](C)[C@H](CN(C)Cc2ccncc2)O3)cc1,0.2
CC(C)CC#Cc1cnc2c(c1)C(=O)N([C@H](C)CO)C[C@@H](C)[C@H](CN(C)C(=O)CN1CCOCC1)O2,-3.1
C[C@@H]1CN([C@@H](C)CO)C(=O)Cc2cc(NS(=O)(=O)c3ccc(Cl)cc3)ccc2O[C@H]1CN(C)S(=O)(=O)c1cccs1,0.7
CC(C)NC(=O)Nc1cccc2c1O[C@@H](CN(C)Cc1ccc(Oc3ccccc3)cc1)[C@@H](C)CN([C@H](C)CO)C2=O,4.0
CCCCc1ccc(S(=O)(=O)NC(=O)C2(C)CCN2C(=O)Cc2ccccc2)cc1 (stereo not given),-12.4
CCCNC(=O)C[C@H]1CC[C@@H]2[C@@H](COc3ccc(NC(=O)c4cccs4)cc3C(=O)N2C)O1,0.3
O=C(OCc1cn([C@@H]2CN(C(=O)c3cccs3)[C@@H](c3ccccc3)C[C@H]2O)nn1)c1ccccc1,-0.4
C[C@H](CO)N1C[C@H](C)[C@H](CN(C)C(=O)C2CCC2)Oc2cc(C#CC3CC3)ccc2S1(=O)=O,1.9
C[C@@H]1CN([C@H](C)CO)C(=O)c2cc(NC(=O)Nc3ccc4c(c3)OCO4)ccc2O[C@@H](C)CCCCO[C@H]1CN(C)C(=O)c1ccccc1,-0.1
N#C[C@H]1[C@H](c2ccc(C#Cc3ccccc3F)cc2)[C@@H](CO)N1C(=O)c1cccnc1,-3.9
O=C(NCC[C@@H]1CC[C@H](NC(=O)c2ccncc2)[C@H](CO)O1)Nc1ccc(Cl)cc1,8.9
COc1ccc(CN(C)C[C@H]2OCCCC[C@H](C)Oc3ccc(NC(=O)Nc4ccc(F)cc4)cc3C(=O)N([C@@H](C)CO)C[C@@H]2C)cc1,20.2
COc1cccc(C#Cc2ccc3c(c2)O[C@@H](CN(C)C)[C@@H](C)CN([C@H](C)CO)S3(=O)=O)c1,7.8
O=C(NCC[C@H]1CC[C@H](NC(=O)C2CC2)[C@@H](CO)O1)c1ccc(F)cc1,-2.3
CCC(=O)N(C)C[C@@H]1Oc2cc(-c3ccncc3)ccc2S(=O)(=O)N([C@H](C)CO)C[C@@H]1C,-3.8
COCC(=O)N1C[C@@H](C)[C@@H](OC)CN(C)C(=O)c2ccc(NC(=O)c3ccccc3)cc2OC[C@@H]1C,-11.4
C[C@H](CO)N1C[C@H](C)[C@H](CN(C)Cc2ccccc2)OCCCC[C@H](C)Oc2ccc(NC(=O)Nc3ccc4c(c3)OCO4)cc2C1=O,1.8
CN(C)C(=O)[C@H]1[C@H](CO)[C@H]2Cn3c(ccc(-c4ccccc4)c3=O)[C@H]2N1Cc1ccccc1F,0.5
COc1ccc(C(=O)N2CCC(C)(C(=O)NS(=O)(=O)C3CC3)C2)c(OC)c1 (stereo not given),1.0
Cc1ccccc1S(=O)(=O)NC(=O)C1(C)CCN1C(=O)c1cccc(F)c1 (stereo not given),1.4
CCc1nc2ccc(C(=O)NC3CCN(Cc4ccccc4)CC3)cn2c1N(C)CCN1CCOCC1,-1.3
CC(=O)Nc1ccc2c(c1)C(=O)N(C)[C@H]1CC[C@@H](CC(=O)NCC3CC3)O[C@@H]1CO2,-1.7
C[C@@H]1CCCCO[C@H](CN(C)C(=O)Nc2ccc(C(F)(F)F)cc2)[C@H](C)CN([C@H](C)CO)C(=O)c2cc(NS(=O)(=O)c3cccs3)ccc2O1,-2.1
COc1ccc(NC(=O)N(C)C[C@@H]2Oc3ccc(NC(=O)Nc4ccccc4)cc3C(=O)N([C@H](C)CO)C[C@H]2C)cc1,-1.2
CNC[C@H]1OCCCC[C@H](C)Oc2ccc(NC(=O)c3ccncc3)cc2C(=O)N([C@H](C)CO)C[C@@H]1C,0.4
C[C@H](CO)N1C[C@H](C)[C@@H](CN(C)Cc2cncnc2)Oc2cc(-c3ccccc3)ccc2S1(=O)=O,1.2
CN1CCN(C(=O)C[C@H]2C=C[C@H](NC(=O)c3ccc4c(c3)OCO4)[C@@H](CO)O2)CC1,-11.1
CC1(Cc2ccc(OC(F)(F)F)cc2)C(=O)Nc2ccc(S(=O)(=O)NC3CCCCC3)cc21 (stereo not given),-2.1
Cc1ccc(S(=O)(=O)N[C@H]2CC[C@H](CCn3cc(C4CC4)nn3)O[C@H]2CO)cc1,1.4

# Shown field by field: part of the list above
COCC(=O)N1C[C@@H](C)[C@@H](OC)CN(C)C(=O)c2ccc(NC(=O)c3ccccc3)cc2OC[C@@H]1C
  AF4-AF9 inh: -11.4
C[C@H](CO)N1C[C@H](C)[C@H](CN(C)Cc2ccccc2)OCCCC[C@H](C)Oc2ccc(NC(=O)Nc3ccc4c(c3)OCO4)cc2C1=O
  AF4-AF9 inh: 1.8
CN(C)C(=O)[C@H]1[C@H](CO)[C@H]2Cn3c(ccc(-c4ccccc4)c3=O)[C@H]2N1Cc1ccccc1F
  AF4-AF9 inh: 0.5

# Next part
SMILES,AF4-AF9 inh
CO[C@H]1CN(C)C(=O)c2cc(NC(=O)c3ccccc3F)ccc2OC[C@@H](C)NC[C@H]1C,-2.3
C[C@H]1CN([C@@H](C)CO)C(=O)Cc2cc(NC(=O)Cc3ccccc3)ccc2O[C@@H]1CN(C)Cc1ccccc1,-1.5
COc1ccc2c3c([nH]c2c1)[C@H](CO)N(C(=O)C1CCC1)CC31CN(C(=O)c2ccncc2)C1,1.5
CC(=O)Nc1cccc(-c2cc(NC=O)c3ncc(-c4ccc(F)c(Cl)c4)n3c2)c1,-1.6
C[C@@H](O)C#Cc1ccc2c(c1)O[C@H](CN(C)C(=O)c1ccccc1)[C@@H](C)CN([C@@H](C)CO)S2(=O)=O,-0.3
O=C(C[C@H]1CC[C@H]2[C@@H](COC[C@@H](O)CN2Cc2cc(F)ccc2F)O1)NCc1ccc(Cl)cc1,-0.3
C[C@@H]1CN([C@@H](C)CO)C(=O)CCCn2cc(nn2)CO[C@H]1CN(C)C(=O)Nc1ccc(N2CCCCC2)cc1,15.4
COc1ccccc1NC(=O)N(C)C[C@H]1Oc2ncc(C#CCN(C)C)cc2C(=O)N([C@H](C)CO)C[C@@H]1C,-5.6
C[C@H](CO)N1C[C@H](C)[C@@H](CN(C)Cc2ccccc2)OCCCC[C@H](C)Oc2ccc(NS(=O)(=O)c3ccc(Cl)cc3)cc2C1=O,4.1
Cc1ccc(-c2ccc([C@@H]3[C@H](CO)N4C(=O)CN(C(=O)c5ccccc5)C[C@@H]34)cc2)cc1,2.7
Cc1ccc(S(=O)(=O)Nc2ccc(Nc3nccn4c(-c5cccc(OC(F)(F)F)c5)cnc34)cc2)cc1,-0.5
COc1ccc(S(=O)(=O)Nc2ccc3c(c2)C(=O)N([C@@H](C)CO)C[C@@H](C)[C@H](CN(C)C(=O)CCC(F)(F)F)OCCCC[C@@H](C)O3)cc1,-4.1
C[C@@H]1CN([C@@H](C)CO)C(=O)CCCn2cc(nn2)CO[C@@H]1CN(C)S(=O)(=O)c1ccc(F)cc1,-1.0
CCc1nc2c(OCC(=O)c3ccc(Cl)cc3Cl)cccn2c1N(C=O)Cc1ccc(OC)cc1,-0.9
O=C(C[C@H]1CC[C@@H]2[C@H](COC[C@@H](O)CN2S(=O)(=O)c2ccc(Cl)cc2)O1)NCc1ccncn1,-2.9
CO[C@@H]1CN(C)C(=O)c2cc(NC(=O)c3ccccc3F)ccc2OC[C@@H](C)N(CC2CC2)C[C@@H]1C,-1.8
COc1ccc(-c2cc(C(=O)Nc3ccc(NC(C)=O)cc3)[nH]n2)c(C)c1,-6.3
C[C@@H]1CCCCO[C@@H](CN(C)C(=O)Nc2ccc(C(F)(F)F)cc2)[C@H](C)CN([C@@H](C)CO)C(=O)c2cc(NS(=O)(=O)c3ccc(F)cc3)ccc2O1,-4.7
COc1ccc(S(=O)(=O)Nc2ccc3c(c2)C(=O)N([C@@H](C)CO)C[C@H](C)[C@@H](CN(C)S(=O)(=O)c2ccc(F)cc2)OCCCC[C@@H](C)O3)cc1,1.2
O=C(c1ccc2c(c1)OCO2)N1CC[C@@H]2[C@@H](CO)Nc3ccc(-c4ccc(F)cc4)cc3[C@@H]21,7.3
Cc1ccccc1-c1cc2nc(NCc3ccncc3)n(C)c(=O)c2s1,1.1
C[C@@H]1CN([C@H](C)CO)C(=O)c2cc(C3=CCCCC3)cnc2O[C@H]1CN(C)Cc1cccc(F)c1,16.1

# Reformatted: six of the compounds above
canonical_smiles	AF4-AF9 inh
C[C@@H]1CN([C@H](C)CO)C(=O)c2cc(NC(=O)c3ccncc3)ccc2O[C@@H]1CN(C)Cc1ccc(Cl)c(Cl)c1	-3.3
CC(C)C[C@H]1COc2c(Cl)cccc2S(=O)(=O)N1Cc1cccc(Cl)c1	-4.7
Cc1ccc([C@@H]2CC=C(C(=O)O)[C@H](c3ccccc3F)N2S(=O)(=O)c2ccccc2C)cc1	-3.2
Cc1noc(C)c1S(=O)(=O)N(C)C[C@H]1Oc2ccc(NS(=O)(=O)c3cccs3)cc2C(=O)N([C@@H](C)CO)C[C@H]1C	3.7
CN(C)Cc1csc(NC(=O)Nc2cccc(C(F)(F)F)c2)n1	-0.4
COc1cccc(NC(=O)N2[C@@H]3CNC[C@H]2C3c2ccc(-c3cccnc3)cc2)c1 (stereo not given in full)	1.3&1.8

# Screening results as filed in PubChem BioAssay.
